# NPYLR7 agonist: activates Aedes aegypti NPYLR7 receptor; AID 1259423; activation, % at 10 µM; 270,000 tested, 0.15% active; HEK293T NPYLR7/Galpha15, GCaMP6s calcium fluorescence; in the data active means activation above about 40%;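 further: 0% = vehicle and 100% = reference agonist at the receptor; some compounds past the cut are filed as inactive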
# NPYLR7 agonist max-min: second read-out of NPYLR7 agonist, no call of its own (marks repeat the call); activation, %; measured here: Max-Min RFU normalised activation; some inactives read as strong as hits;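 span of the calcium signal over five minutes; 0% = vehicle and 100% = native peptide agonist; compound fluorescence can raise it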
# Starred values were filed as active, the others as inactive.
# Values run as follows: NPYLR7 agonist	NPYLR7 agonist max-min
- O=C1CCC(C(=O)N2CCC(Cn3ccnc3)CC2)CN1CCc1ccccn1 (stereo not drawn)
→ -2	-5
- CCOC(=O)c1ccc(Nc2ccc(F)c(N3CCCC3=O)c2)nc1
→ 5	7
- O=C(NCCc1ccccc1)c1cc(NC(=O)C(Cl)c2ccccc2)ccc1N1CCCCC1 (stereo not drawn)
→ 2	16
- CCN(CC)c1nc(SC)ncc1CNCc1ccc(OC)cc1
→ 1	-3
- CCOC(=O)C1=C(CC)NC2=C(C(=O)CC(C)(C)C2)C1c1ccc([N+](=O)[O-])cc1 (stereo not drawn)
→ -2	-9
- O=S(=O)(c1ccc(-c2cnco2)cc1)N1CCC2(CCCNC2)C1 (stereo not drawn)
→ 0	0
- O=S(=O)(NCc1ccccc1)N1CCc2[nH]nc(C3CCC3)c2C1
→ 0	6
- CCc1ccc(N2C(=O)c3ccccc3NC2c2cc(OC)c(O)c(OC)c2)cc1 (stereo not drawn)
→ 8	9
- COc1ccc(S(=O)(=O)N(C)C2CCS(=O)(=O)C2)cc1Br (stereo not drawn)
→ 9	9
- O=C(O)c1ccc(CSc2nnc(-c3ccc([N+](=O)[O-])cc3)n2-c2ccc(F)cc2)cc1
→ -3	-9
- CCCCc1ccc(C(=O)N2CCN(C(C(=O)N(CC)CC)C3CCCC3)CC2)cc1 (stereo not drawn)
→ -1	25
- Cc1ccc(NC(=O)c2ccc(CN3CCN(C)CC3)cc2)cc1Nc1nc(-c2cccnc2)cs1
→ -11	-16
- Cc1ccc(C(=O)NCCc2nnc3ccc(SCC(=O)NC4CCCCC4)nn23)cc1
→ -4	-12
- CCOc1cc(C2SC(NC(C)=O)=NN2C(C)=O)ccc1OCc1ccc(Cl)cc1Cl (stereo not drawn)
→ 3	2
- COc1nc(N2CCC(CC(N)=O)CC2)ncc1Br
→ -4	-3
- CCOC(=O)c1nn(-c2ccc(OC)cc2)c(=O)c2c(NC(=O)CC)scc12
→ -8	-6
- CC(C)CN(Cc1cc(Cl)ccc1OS(C)(=O)=O)C(=O)c1ccco1
→ -4	6
- c1ccc(CSc2ncn[nH]2)nc1
→ -1	5
- O=C(O)c1cc(F)ccc1NS(=O)(=O)c1ccc(Cl)cc1
→ 3	0
- c1cc(-c2cccc3ccnn23)cc(-n2cnnc2)c1
→ -3	-3

# Of the compounds above, these have a Cl atom:
# Values run as follows: NPYLR7 agonist	NPYLR7 agonist max-min
- O=C(NCCc1ccccc1)c1cc(NC(=O)C(Cl)c2ccccc2)ccc1N1CCCCC1 (stereo not drawn)
→ 2	16
- CCOc1cc(C2SC(NC(C)=O)=NN2C(C)=O)ccc1OCc1ccc(Cl)cc1Cl (stereo not drawn)
→ 3	2
- CC(C)CN(Cc1cc(Cl)ccc1OS(C)(=O)=O)C(=O)c1ccco1
→ -4	6
- O=C(O)c1cc(F)ccc1NS(=O)(=O)c1ccc(Cl)cc1
→ 3	0

# The list goes on.
# Values run as follows: NPYLR7 agonist	NPYLR7 agonist max-min
- Cc1c(Cl)cccc1N1CN(C(=O)CN(CC(C)C)C(=O)CCc2ccccc2)CC1=O
→ 16	12
- CN(Cc1cccc(F)c1)Cc1nc2scc(-c3ccc(Cl)cc3)c2c(=O)[nH]1
→ 9	14
- COc1cc(CN2CCCn3cccc3C2c2cc(C)ccc2C)cc(OC)c1 (stereo not drawn)
→ -5	10
- CC(C)c1ccc(C(C)NC(=O)c2ccc(CS(N)(=O)=O)cc2)cc1 (stereo not drawn)
→ 12	10
- CCc1nc(-c2ccccc2)nc(N2CCN(C(=O)c3ccc(F)cc3)CC2)c1Cc1cc(C)ccc1C
→ 3	6
- CCCCN(CC(=O)Nc1cc(-c2ccccc2)nn1-c1ccccc1Cl)C(=O)Nc1c(C(C)C)cccc1C(C)C
→ 16	11
- O=C(CCN1C(=O)NC2(CCCC2)C1=O)NCCSc1ccccc1
→ 4	10
- COc1ccc(CN(C)Cn2nc(-c3ccc(OC)cc3)oc2=S)cc1
→ 7	13
- Cc1ccc(C2(O)CCN(c3cncc(C(=O)N4CCCC4)n3)CC2)nc1
→ -3	-4
- CCOC(=O)c1nnc2ccccc2c1NCc1ccccc1
→ 9	4
- CSc1ccc(C(=O)CC(C)(C)C(=O)NCCc2cccs2)cc1
→ -3	-8
- O=S(=O)(c1ccc(Cl)s1)N1CCC2(CC1)OCCO2
→ -1	-3
- CCN(CC)CCn1c2c(c(SCC(=O)N3CCc4ccccc43)nc1=O)CCC2
→ -2	-4
- CC(C)(C)C(=O)Nc1nnc(-c2ccco2)s1
→ -9	-9
- Cc1cccc2[nH]c(C3CCCN3Cc3ccc(S(C)(=O)=O)cc3)nc12 (stereo not drawn)
→ 2	-19
- CC(=O)Nc1cccc(OCCNc2cncc(Cl)n2)c1
→ -6	-4
- O=C(CSc1nnc(CNC(=O)c2cccs2)n1-c1ccc(F)cc1)Nc1ccc(F)cc1
→ -2	4
- CCS(=O)(=O)Oc1ccc(Cl)cc1CN(CCOC)C(=O)c1cccs1
→ -5	0
- CCn1ccnc1CN(C)C(=O)c1cc(C)ccc1OC1CCN(Cc2ccncc2)CC1
→ 17	10
- Cn1c2c(c(=O)[nH]c1=O)C(c1ccc(Br)cc1)C1C(=O)OCC1=N2 (stereo not drawn)
→ 0	-4
- CN1CCN(C(=O)c2ccc(Cl)c(S(=O)(=O)N3CCCCC3)c2)CC1
→ -3	-7
- O=C(Nc1ncc([N+](=O)[O-])s1)c1cccn(OCc2cccc(Cl)c2)c1=O
→ 11	10
- CCCCc1ccc(C(=O)N(CCCC)CC(=O)N2c3ccccc3-n3cccc3C2c2ccc(Cl)cc2)cc1 (stereo not drawn)
→ 14	20
- O=C(O)c1ccccc1CN1CCCC(Cc2nc3ccccc3[nH]2)C1 (stereo not drawn)
→ 2	0
- O=C(c1ccc(Cl)cc1Cl)N1CCN(C(c2ccc(F)cc2)c2ccc(F)cc2)CC1
→ 16	1
- COc1ccc(OC)c(C2CCCN2C(=O)CNC(=O)c2ccc(Cl)cc2Cl)c1 (stereo not drawn)
→ 8	10
- CC(=O)c1cc(C(=O)N2CCC(c3[nH]ncc3Cc3ccccc3)CC2)[nH]n1
→ 14	10
- COc1ccc(CN(Cc2cccc(C)c2)C(=O)CNC(C)=O)cc1
→ 13	7
- COCc1c(Br)c(C)nc(OCC(=O)N/N=C\c2cccc(Oc3ccc([N+](=O)[O-])cc3[N+](=O)[O-])c2)c1C#N
→ 16	18
- Clc1ccc(-c2nc(Nc3ccccc3)c3ccccc3n2)cc1
→ 22	14
- Cc1ccc(NC(=O)CN2C(=O)c3cccc([N+](=O)[O-])c3C2=O)cc1Cl
→ -3	-10
- O=c1ccnc(/C=C/c2ccc(OCc3ccccc3)cc2)[nH]1
→ -3	-5
- Cc1nc(C)c(Cc2ccccc2F)c(N2CCN(C(=O)C3CC3)CC2)n1
→ -1	13
- Cc1nn2c(CN3CCOCC3)nnc2c2cc([N+](=O)[O-])ccc12
→ 2	2
- CCN(CC)C(=O)COc1ccc(NC(=O)CC(C)(C)C)cc1Cl
→ 0	-3
- CCNc1ncc(C(=O)NCc2cc(F)cc3c(C)c(CC)[nH]c23)cn1
→ 6	3
- Cc1ccc(N2CCC(N3CCNC(C(=O)NC4CC4)C3)CC2)cc1Cl (stereo not drawn)
→ 11	10
- Cc1cccc(-c2cnc(-c3ccncc3)nc2C2CCN(C(=O)c3ccoc3)CC2)c1
→ 8	11
- COc1cccc(-n2c(SCC(=O)Nc3nccs3)nc3c(c2=O)SCC3)c1
→ -8	-11
- N#CC(C#N)=C1C=C2CC(=NCc3ccccc3)CCC2CC1 (stereo not drawn)
→ 36	29
- COc1ccc(C2SCC(=O)N2CC(O)c2ccccc2)cc1OC (stereo not drawn)
→ 0	-2
- COc1cccc(OCc2ccccc2)c1C(=O)Nc1ccc(C(C)C)cc1
→ -7	-15
- COC(=O)C(c1ccccc1F)C1C=CC(NC(=O)c2c(F)ccc(F)c2Cl)C1 (stereo not drawn)
→ 1	-3
- O=C1NCC(=O)N2CCN(C(=O)COc3ccc4c(c3)OCO4)CC12 (stereo not drawn)
→ -4	-5
- NC(=O)c1nc(-c2cc(Br)ccc2O)nc2c1[nH]c(=O)n2-c1ccc(Cl)cc1
→ 5	12
- O=C(NCC(F)(F)F)C1CCN(S(=O)(=O)Cc2cccc(F)c2)CC1
→ 10	4
- COc1ccc(Br)cc1NC(=O)NCCS(C)=O (stereo not drawn)
→ 3	-1
- CCOC(=O)C(c1ccc(OC)c(OC)c1)C1C=CC(NC(=O)c2ccc(OC)cc2OC)C1 (stereo not drawn)
→ 2	3
- CCCCCCNC(=O)c1cc(-c2cccc(OC)c2)nc2cc(C(C)(C)C)nn12
→ 8	12
- CCc1ccc2nc(N(CCCN3CCOCC3)C(=O)c3ccc4c(c3)OCCO4)sc2c1
→ -4	-5
- COc1cccc(CN(C)C(=O)CCc2nnc(C3(c4ccc(Cl)cc4)CCC3)o2)c1
→ 9	-2
- CCC1(C)NC(=O)N(CC(=O)Nc2ccc(Br)cc2)C1=O (stereo not drawn)
→ 3	11
- Cc1cccc(-n2cc(-c3nc4c(cnn4C)[nH]3)cn2)c1
→ -4	-6
- Cc1ccc(OCc2ccc(-c3nc(C#N)c(NCCCN(C)C)o3)o2)cc1
→ 0	11
- Cc1ccc(-c2csc(=Nc3ccc(C)cc3C)n2N2CCOCC2)cc1
→ -6	-8
- Cc1ccc2nc(N3CCN(C(=O)c4cc(C)on4)CC3)sc2c1
→ 4	4
- CC(=O)Nc1ccc(S(=O)(=O)N2CCN(c3ncccc3NC(=O)c3ccc4c(c3)OCO4)CC2)cc1
→ 11	7
- Cc1nc(C)c(C(=O)N2CCn3c(C(N)=O)cnc3C2)s1
→ 0	-4
- Cc1cc(C)n(Cc2cccc(CNC(=O)C(C)(C)C)c2)n1
→ 3	-1
- Cc1nc(N2CCN(CCO)CC2)nc2c1C(=O)CC(c1ccccc1O)C2 (stereo not drawn)
→ -2	-9

# Next section:
# Values run as follows: NPYLR7 agonist	NPYLR7 agonist max-min
- Cc1cccc(Cn2cnc3c(cnn3CCNC(=O)c3ccc(Br)o3)c2=O)c1
→ -3	-6
- CN1CCn2nc(C(=O)N(C)Cc3nc4ccc(Cl)cc4[nH]3)cc2C1
→ 10	8
- Cc1ccc(NC(=O)CC(C)n2cncn2)c(C)c1 (stereo not drawn)
→ 0	3
- CC(C)(CNc1ncnc2cc(Cl)ccc12)N1CCOCC1
→ -3	-2
- COc1ccc(C(=O)N2[C@@H](c3ccccc3)[C@@H](C(=O)O)C[C@]23CCCCNC3=O)cc1
→ 4	10
- Cc1nn(C2CCS(=O)(=O)C2)c2nc(-c3ccc(F)cc3)cc(C(=O)N3CCOCC3)c12 (stereo not drawn)
→ 1	5
- NC(=O)c1ccccc1OCc1noc(-c2ccco2)n1
→ -5	-4
- CCc1nnc(CN(CC)C(=O)c2cn(-c3ccccc3)nn2)o1
→ 3	-5
- COc1cc(OC)cc(-n2c(CCC(=O)NCCc3cccc(Cl)c3)cc3c2-c2ccccc2CC3)c1
→ 28	13
- CN(Cc1ccoc1)c1nc(-c2cccnc2)nc2c1cnn2C
→ 1	1
- COc1cc(Cl)ccc1C(=O)N1CCNCC(CC(=O)O)C1 (stereo not drawn)
→ 19	16
- Cc1cnn(CCC(=O)NC(C)c2cccc(C)c2C)c1 (stereo not drawn)
→ 5	0
- NC(=O)N1CCCC1C(=O)O (stereo not drawn)
→ 2	4
- O=C(CCl)N1CCN(Cc2ccccc2F)CC1
→ -3	-6
- CCc1nc2ccc(C(=O)Nc3ccc(NC(C)=O)cc3)cn2c1N(C)C(=O)Cc1ccccc1
→ 7	8
- CC(=O)Nc1sccc1S(=O)(=O)c1ccc(C)c(C)c1
→ 12	14
- O=C(C1=Cc2ccccc2OC=C1)N1CC(c2cccnc2)C1
→ 23	18
- COCC(C)NC(=O)CSc1nnc(NCc2ccc(OC)cc2)s1 (stereo not drawn)
→ 0	-2
- Oc1ccc(-c2nccnc2N[C@H]2CCN(Cc3ccccc3)C2)cc1
→ -5	-9
- Cc1ccc(Cn2c(N3CCN(CCC(C)C)CC3)nc3c2c(=O)[nH]c(=O)n3C)cc1
→ -10	-10

# Shown as tab-separated lines: 7 of the compounds above.
smiles	NPYLR7 agonist	NPYLR7 agonist max-min
Oc1ccc(-c2nccnc2N[C@H]2CCN(Cc3ccccc3)C2)cc1	-5	-9
COc1ccc(C(=O)N2[C@@H](c3ccccc3)[C@@H](C(=O)O)C[C@]23CCCCNC3=O)cc1	4	10
Cc1ccc(NC(=O)CC(C)n2cncn2)c(C)c1 (stereo not drawn)	0	3
NC(=O)N1CCCC1C(=O)O (stereo not drawn)	2	4
O=C(CCl)N1CCN(Cc2ccccc2F)CC1	-3	-6
NC(=O)c1ccccc1OCc1noc(-c2ccco2)n1	-5	-4
COc1cc(Cl)ccc1C(=O)N1CCNCC(CC(=O)O)C1 (stereo not drawn)	19	16

# Additional structures:
# Values run as follows: NPYLR7 agonist	NPYLR7 agonist max-min
- O=C(c1csc2nc(-c3ccccc3)cn12)N1CCC(C2CCCCC2)C1 (stereo not drawn)
→ -1	-2
- COc1ccc(CCN2CCCC(CN(C)C(=O)c3ccoc3)C2)cc1 (stereo not drawn)
→ 1	-1
- CC(=O)Nc1nc(CN(C)c2ccc(C(C)(C)C)cc2)cs1
→ -1	-1
- CCC(C)n1nccc1NC(=O)C1CCC(NC(=O)OC(C)(C)C)C1 (stereo not drawn)
→ 0	9
- Cn1c(=O)[nH]c(=O)c2c1nc(CN1CCN(Cc3ccccc3)CC1)n2CCCc1ccccc1
→ 1	8
- CC(C)CC(N)=O
→ -4	6
- COc1ccc(CN2CCn3nc(C(=O)NC4CC4)cc3C2=O)cc1
→ 20	22

# A portion of the library; the hit share may differ from the screen's.
